Screens (PubChem BioAssay)
PABP polyA inh = PABP poly(A) RNA binding inhibitors, primary screen, biochemical, fluorescence polarization, uHTS | 290,000 compounds, 1% hits | inhibition, % at 35 µM;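 active = 50% or more with normal probe brightness, or confirmed in later tests; inconclusive = above 50% with abnormal brightness, or retests that disagree; inactive = below 50% or failed in later tests; about a fifth of its hits are not listed in these tables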;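 note: calls also rest on retests at 20 µM and on dose response follow-up; controls were probe without protein and protein plus probe with vehicle; some compounds called inactive have numbers as strong as hits; many hits fall short of the cut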
Target sequence (P11940 whole entry, looked up): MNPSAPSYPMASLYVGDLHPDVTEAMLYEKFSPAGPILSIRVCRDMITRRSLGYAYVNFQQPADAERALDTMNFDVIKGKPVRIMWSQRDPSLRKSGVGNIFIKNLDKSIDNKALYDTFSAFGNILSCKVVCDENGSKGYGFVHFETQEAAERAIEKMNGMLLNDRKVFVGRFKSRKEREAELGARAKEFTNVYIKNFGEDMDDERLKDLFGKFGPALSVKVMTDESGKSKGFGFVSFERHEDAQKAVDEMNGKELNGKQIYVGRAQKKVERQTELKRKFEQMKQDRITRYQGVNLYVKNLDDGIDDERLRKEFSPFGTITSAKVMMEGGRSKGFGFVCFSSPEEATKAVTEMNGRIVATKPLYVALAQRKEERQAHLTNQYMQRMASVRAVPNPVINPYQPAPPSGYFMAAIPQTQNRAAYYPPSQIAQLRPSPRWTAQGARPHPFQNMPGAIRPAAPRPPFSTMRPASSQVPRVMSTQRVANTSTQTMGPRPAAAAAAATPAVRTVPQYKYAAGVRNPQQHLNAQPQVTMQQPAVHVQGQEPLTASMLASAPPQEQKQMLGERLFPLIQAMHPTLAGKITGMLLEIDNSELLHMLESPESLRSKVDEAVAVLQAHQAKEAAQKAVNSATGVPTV
HIV Env fusion = inhibitors of HIV-1 Env-driven cell-cell fusion, primary screen, HeLa-JRFL effector, CEM21 target cells, luciferase | inhibition, % at 12.3 µM | 360,000 compounds, 1.1% hits | AID 651610, 2012;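 active = mean replicate inhibition score of at least 50 and every replicate individually at or above 50; inconclusive = only one of the two criteria met; inactive = mean below 50 and not all replicates reaching 50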;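 note: 0% = plate neutral controls and 100% = maraviroc near 300 nM; one replicate is shown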
CSC inhib = cancer stem cell viability inhibitors, primary screen, luminescence. 300,000 compounds, 1.1% hits. AID 2717, 2010. cancer stem cell-like cells viability. inhibition, % at 7.5 µM;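 active = mean at 75% or more and at least half the replicates too; inconclusive = mean and replicates disagree; tested in HMLE shEcad cells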;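 note: 0% = median of negative and 100% = median of positive control wells; the first replicate is given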
Rce1 inh = yeast Rce1p protease inhibitors, primary screen, biochemical, fluorescence, cell-free homogeneous | yeast membranes, quenched prenylated peptide cleavage fluorescence | calls only | 290,000 compounds, 0.27% hits | AID 2563, 2010;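 active = fall in fluorescence gain of 50% or more versus controls, with final raw signal at or below 3038400; inconclusive = same 50% fall but final raw signal above 3038400; inactive = fall in fluorescence gain under 50%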;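 note: plate controls were neutral control wells for no effect and wells lacking membranes for full effect; tested at 10 µM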
Target sequence (Q03530 whole entry, looked up): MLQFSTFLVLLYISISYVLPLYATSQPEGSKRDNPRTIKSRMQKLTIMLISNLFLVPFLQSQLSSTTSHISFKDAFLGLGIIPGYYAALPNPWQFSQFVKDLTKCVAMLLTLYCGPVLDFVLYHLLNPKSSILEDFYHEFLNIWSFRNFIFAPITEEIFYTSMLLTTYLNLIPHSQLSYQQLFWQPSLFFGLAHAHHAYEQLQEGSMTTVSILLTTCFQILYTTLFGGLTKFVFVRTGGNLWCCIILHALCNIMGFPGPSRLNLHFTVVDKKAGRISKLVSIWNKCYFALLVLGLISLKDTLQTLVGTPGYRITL
Yeast UUG start = modulators of yeast start codon fidelity, primary screen, whole organism, S. cerevisiae, single point, plate reader; activity score, % at 18.7 µM; S. cerevisiae UUG-firefly luciferase reporter, luminescence/redox ratio; 350,000 compounds, 0.13% hits;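 active = replicate mean at a twofold rise or more, about +100% in these data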;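 note: firefly luciferase made from a UUG start codon reports start codon fidelity; reporter light over untreated wells divided by growth signal over untreated wells; some hits fall short of that in this replicate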
MT1-MMP act inh = blockers of MT1-MMP proenzyme processing, primary screen, HT1080 RFP-PRO-GFP cells, GFP/RFP fluorescence. GFP/RFP ratio change, % at 20 µM. 360,000 compounds, 0.061% hits. Matrix metalloproteinase-14 (Homo sapiens), P50281. GFP/RFP ratio fluorescence, overnight; percent of plate control window, DMSO zero. AID 651647, 2012;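 active = GFP/RFP ratio change of at least 30% with cell ATP level not reduced by more than half and red fluorescence within 50% of control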; note: strong numbers were not always called active
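Material: RFP-PRO-GFP reporter HT1080 cells. Dosing: single-point 20 µM compound, 1% DMSO. Controls: DMSO and RFP-L50D-GFP cell wells. Timing: cells overnight before dosing, compound overnight, 37 °C, 5% CO2. Measure: GFP/RFP fluorescence ratio.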
eIF4H FP inh = human eIF4H binding inhibitors, primary screen, translation initiation inhibitor project, biochemical, uHTS, fluorescence polarization. inhibition, % at 35 µM. 290,000 compounds, 0.94% hits. Eukaryotic translation initiation factor 4H (Homo sapiens), Q15056. eIF4H fluorescence polarization binding assay;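 active = 50% or more with normal probe brightness, or confirmed in later tests; inconclusive = above 50% with abnormal brightness, or retests that disagree; inactive = below 50% or failed in later tests; about a fifth of its hits are not listed in these tables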;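 note: calls also rest on retests at 20 µM and on dose response follow-up; 0% = protein and probe with vehicle and 100% = probe without protein; strong numbers were not always called active; many hits fall short of the cut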
MT1-MMP act inh RFP = second read-out of MT1-MMP act inh, no call of its own (marks repeat the call); RFP signal change, %; measured here: RFP expression control read;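 0 = vehicle wells; hits needed this value within 50% of zero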
An asterisk follows results filed as active; i = inactive; ? = inconclusive; . = no result given; + = active, no number; & = joins results of further samples. A portion of the library (hit frequency here may not be typical).

SMILES	PABP polyA inh	HIV Env fusion	CSC inhib	Rce1 inh	Yeast UUG start	MT1-MMP act inh	MT1-MMP act inh RFP	eIF4H FP inh
Fc1cccc(F)c1CN1CCN(Cc2c(F)cccc2F)CC1	-6	.	-5	.	-13	1	-3	-10
O=C(Nc1ccccc1OC(=O)N1CCCCC1)N1CCCCC1	-4	.	2	i	.	2	5	-3
O=C(CN1C(=O)CCSc2ccccc21)N1CCC2(CC1)OCCO2	-11	32	-2	i	1	0	0	-9
C[C@H]1C/C=C/[C@H]2[C@H](O)[C@H](C)[C@@](C)(O)[C@H]3[C@H](Cc4ccccc4)NC(=O)[C@]32[C@H](O)/C=C/[C@](C)(O)C1	.	.	-3	i	-10	2	9	.
Cc1ccc(CN2C3CCCC2CC(NC(=S)NCc2ccccc2)C3)cc1 (centres undefined)	5	-17	-7	i	.	5	3	-4
C=CCN1CC[C@@]2(C)c3cc(O)ccc3CC1[C@@H]2C	-2	-2	3	i	-18	0	1	-2
CC1CCCN(CC(=O)N2CCCc3ccccc32)C1 (centres undefined)	-10	17	0	i	-11	6	-3	-12
CCC(=O)N1N=C2C3CCN(CC3)C2C1c1ccccc1 (centres undefined)	2	.	13	i	-20	8	7	-11
O=C1NC(=O)N(Cc2ccc(F)cc2)C(=O)/C1=C\c1ccc([N+](=O)[O-])s1	8	-4	19	i	-5	-63	29	34
Cc1ccc(N2C(=O)NC(=O)C(CCc3ccccn3)(Cc3ccc(F)cc3)C2=O)cc1 (centres undefined)	-9	58*	-17	i	.	-4	0	1
O=C(c1cccc([N+](=O)[O-])c1)C12CN3CN(CN(C3)C1)C2	-6	-4	-12	i	-4	-4	-1	5
COC(=O)C1=C(c2cccc3c2S(=O)(=O)c2ccccc2-3)C[C@@H]2CC[C@H]1N2C(=O)N1CCOCC1	.	6	-8	.	-8	0	4	.
Cc1ccc(C2CN(C)CC2C(=O)c2ccc(F)cc2)cc1 (centres undefined)	3	7	.	i	-6	-4	0	-1
C=CCn1c(O)c(C=NCCCOc2ccc(CC)cc2)c(=O)[nH]c1=S	-6	.	-4	i	3	-8	3	32
CC12CC(O)C3C(CCC4=CC(=O)CCC43C)C1CCC2=O (centres undefined)	.	-7	.	.	-15	3	0	.
C[C@]12C=CC(=O)C=C1C=C[C@@H]1C2CC[C@]2(C)C(=O)CCC12 (some centres undefined)	-1	-26	-5	i	-12	-1	-5	-5
CN1C(=O)/C(=C\c2ccc(N3CCCCCC3)cc2)C(=O)NC1=S	9	-4	-7	i	.	26	29	-1
COc1ccccc1N=Nc1c(O)[nH]c(=S)[nH]c1=O	?	-12	-1	i	.	11	3	?
Cc1ccc2c(c1)C1CN(C)CCC1N2C(=O)c1cccs1 (centres undefined)	-9	13	-9	i	.	-9	-5	0
C=CCn1c(O)c(/C(C)=N/NC(=S)Nc2ccccc2)c(=O)[nH]c1=O	-1	7	-11	i	-18	3	3	2
C[C@]12CCC3C(CC[C@H]4C[C@H](O)CC[C@]34C)C1[C@@H](O)[C@@H](O)[C@@H]2O (some centres undefined)	.	1	-8	.	-17	1	2	.
O=C(COc1ccccc1)N1CCN(CC2CC3C=CC2C3)CC1 (centres undefined)	3	.	28	i	-14	3	2	-2
Cc1ccsc1C(=O)C1CCCN(Cc2cn(C)nc2C)C1 (centres undefined)	8	0	-13	i	.	1	1	2
Oc1ccc(C[C@H]2NCCc3cc(O)c(O)cc32)cc1O	6	-36	20	i	-20	7	2	12
Cc1nn(Cc2ccccc2Cl)c(C)c1C(=O)OCC(=O)NC1CCCC(C)C1C (centres undefined)	20	-28	0	i	.	-1	-11	-1
COc1ccc(C(=O)CC2C(=O)N(C)C(=O)N(C)C2=O)cc1	10	.	-10	i	-28	-3	4	0
C[C@@H]1C(=O)O[C@H]2[C@H](O)[C@]34[C@@H]5OC(=O)[C@]3(OC3OC(=O)[C@H](O)C34[C@H](C(C)(C)C)[C@@H]5O)[C@@]12O (some centres undefined)	.	30	.	.	-3	0	3	.
CN1C(=O)CN=C(c2ccc(Cl)cc2)c2cc(Cl)ccc21	-4	.	-1	i	-4	5	-1	10
O=C(N/N=C/c1c(O)n(CCC2=CCCCC2)c(=S)[nH]c1=O)c1ccccc1	-6	24	29	i	.	6	8	?
O=C(Cn1c(=O)n(CC2CS2)c2ccccc21)N1CCCCCC1 (centres undefined)	-2	19	-1	i	.	-6	-2	-14
COc1cc2c(cc1O)[C@@H]1Cc3ccc(OC)c(O)c3CN1CC2	.	-21	53	.	3	1	-9	.
CCN1CCc2ccccc2C1	-8	-5	3	i	.	1	0	-6
CCC1(c2ccc(N)cc2)CCC(=O)NC1=O (centres undefined)	.	-48	-2	i	-7	-1	4	.
CCN(CC)C(=O)c1ccc(N(Cc2ccccc2)S(C)(=O)=O)cc1	-8	6	.	i	-10	0	-2	-4
COC(=O)C1=C(c2cc3ccccc3o2)C[C@@H]2CC[C@H]1N2C(=O)NC1CCCCC1	.	-1	-1	i	-16	-3	-11	.
C=CCN1C(=O)NC(=O)/C(=C\c2ccc(-c3ccccc3[N+](=O)[O-])o2)C1=O	-14	-21	4	i	.	0	-2	2
COC(=O)C1=C(c2cccc(OC)c2OC)C[C@@H]2CC[C@H]1N2C(=O)NCCO	.	-31	-8	i	-21	-2	-2	.
Cc1nc2ccccc2c(=O)n1-c1cc(F)ccc1F	-2	3	3	.	.	9	9	-9
CCOP(=O)(OCC)c1ccc(OP(=O)(c2cccc([N+](=O)[O-])c2)c2cccc([N+](=O)[O-])c2)cc1	-9	7	-5	i	.	2	6	0
Cc1ccc(CC2C(=O)N(C)C(=O)N(C)C2=O)s1	20	-96	6	i	15	2	7	0
OC1(c2ccccc2)CCNC2CCCCC21 (centres undefined)	3	0	-4	.	-11	0	3	8
CC[C@H](C)[C@@H](C(=O)N1CCCC1c1nccs1)N(C)C(=O)[C@H](CC(C)C)N(C)C(=O)[C@H](Cc1ccc(OC)cc1)N(C)C(=O)/C=C(\C)OC (some centres undefined)	.	-147	.	.	-1	2	-6	.
COC(=O)C1=C(c2cccc(C#N)c2)C[C@@H]2CC[C@H]1N2C(=O)N1CCCCC1	.	16	11	.	-11	0	2	.
O=C(O)Cn1cc(/C=C2\C(=O)NC(=O)N(c3ccc(Br)cc3)C2=O)c2ccccc21	?	2	-6	i	.	-28	17	?
CCC(c1nnnn1Cc1ccccc1)N1CCC(n2c(=O)[nH]c3ccccc32)CC1 (centres undefined)	.	55*	.	.	6	-18	-3	.
Cc1ccc(C)c(NP(=O)(Oc2ccccc2)Oc2ccccc2)c1	10	37	46	i	-6	-17	-4	-6
C1CC2OC2CC1C1CO1 (centres undefined)	.	.	3	.	-4	-2	5	.
COC(=O)C1=C(c2ccc(Cl)c(C(F)(F)F)c2)C[C@@H]2CC[C@H]1N2C(=O)NCCOc1ccccc1	.	.	7	.	-18	0	-11	.
Cc1cccc(C)c1-n1nnnc1C(c1cccc2ccccc12)N1CCC2(CC1)C(=O)NCN2c1ccccc1 (centres undefined)	.	-15	.	.	-11	2	-1	.
O=C(O)CNC1c2ccccc2CSc2ccccc21 (centres undefined)	.	11	-11	i	-12	-2	-1	.
CC(C)c1ccc(-n2c(O)c(/C=N/NC(=O)c3ccncc3)c(=O)[nH]c2=O)cc1	-14	-14	0	i	.	-8	2	?
COc1ccc(N2CCN(CCCN)CC2)cc1	.	.	9	i	-30	3	4	.
CC(=O)O[C@@]12CO[C@@H]1C[C@@H](O)[C@@]1(C)C(=O)[C@H](O)C3=C(C)[C@@H](OC(=O)[C@H](O)[C@@H](NC(=O)c4ccccc4)c4ccccc4)C[C@@](O)([C@@H](OC(=O)c4ccccc4)C12)C3(C)C (some centres undefined)	3	.	-2	i	33	-4	-15	-2
COc1ccc(-n2nnnc2C(c2cccc3ccccc23)N2CCC3(CC2)C(=O)NCN3c2ccccc2)cc1 (centres undefined)	.	-2	.	.	-15	-1	-7	.
Cc1cc(OCc2cc(C(=O)O)oc2C)c2c3c(c(=O)oc2c1)CCCC3	18	-20	7	i	11	0	3	4
O=c1c2ccc(Cl)cc2[nH]c(=S)n1-c1cccnc1	-11	-7	.	i	.	0	1	-12
O=C1C(=O)c2ccccc2-c2ccccc21	16	91*	107*	i	0&-76	-22	-38	4
C=CCn1c(O)c(C(=O)CCCCCC)c(=O)[nH]c1=O	-3	.	.	i	.	-3	-3	-14
O=C1CC(N2CCC(n3c(=O)[nH]c4ccccc43)CC2)C(=O)N1c1ccc(F)cc1 (centres undefined)	8	.	-11	i	-12	1	2	10
COc1ccccc1CCNC1C2CC3CC(C2)CC1C3 (centres undefined)	-4	.	-2	i	.	3	7	-4

3 of the compounds above, bar-delimited:
structure | PABP polyA inh | HIV Env fusion | CSC inhib | Rce1 inh | Yeast UUG start | MT1-MMP act inh | MT1-MMP act inh RFP | eIF4H FP inh
CCN(CC)C(=O)c1ccc(N(Cc2ccccc2)S(C)(=O)=O)cc1 | -8 | 6 | . | i | -10 | 0 | -2 | -4
COC(=O)C1=C(c2ccc(Cl)c(C(F)(F)F)c2)C[C@@H]2CC[C@H]1N2C(=O)NCCOc1ccccc1 | . | . | 7 | . | -18 | 0 | -11 | .
C[C@H]1C/C=C/[C@H]2[C@H](O)[C@H](C)[C@@](C)(O)[C@H]3[C@H](Cc4ccccc4)NC(=O)[C@]32[C@H](O)/C=C/[C@](C)(O)C1 | . | . | -3 | i | -10 | 2 | 9 | .

The list continues.
SMILES	PABP polyA inh	HIV Env fusion	CSC inhib	Rce1 inh	Yeast UUG start	MT1-MMP act inh	MT1-MMP act inh RFP	eIF4H FP inh
CCn1nc(-c2cccs2)nc2c(=O)n(C)c(=O)nc1-2	23	.	.	.	-92	-15	-38	17
CC(NC(=O)Oc1ccccc1)C(c1cccs1)N1CCOCC1 (centres undefined)	-8	.	-10	i	-4	1	3	-8
CC[n+]1c(SC)ccc2cc(OC)ccc21	-11	2	-15	i	.	0	0	-12
O=[N+]([O-])c1ccc(C2[C@H]3C(c4ccccc4)=NC4(CCCC4)N23)cc1 (some centres undefined)	-2	4	-13	i	-5	0	-1	1
C[C@]12CCC3C(CC[C@H]4C[C@@H](O)CC[C@]34C)C1C[C@@H](N)[C@@H]2O (some centres undefined)	.	7	-3	.	-1	0	4	.
Cc1nc2c(c(=O)[nH]1)C(c1ccccc1Cl)c1c(c3ccccc3oc1=O)O2 (centres undefined)	8	.	-7	i	.	.	.	-2
CC(=O)N1N=C2C3CCN(CC3)C2C1c1ccccc1 (centres undefined)	1	.	-20	i	-17	-1	2	-1
FC(F)(F)Oc1ccc(C2NCc3ccccc3-n3cccc32)cc1 (centres undefined)	-4	-1	-2	i	2	2	-1	2
COc1ccc(OCC#CCN2CCNCC2)cc1	5	22	-16	.	0	.	.	0
COc1ccc(CCn2c(O)c(/C=N/NC(=O)c3ccncc3)c(=O)[nH]c2=O)cc1OC	-8	28	-2	i	.	2	3	20
CN1C(=O)N(C)C(=O)C(CCc2ccncc2)(Cc2ccc3c(c2)OCO3)C1=O	-3	-21	9	i	-12	0	2	-2
CCOC(=O)c1[nH]ncc1CN1CCCC(C(=O)c2cccc(Cl)c2)C1 (centres undefined)	-3	10	-10	i	13	17	-1	6
O=C(COc1ccc2ccc(=O)oc2c1)N1CCC(C(=O)O)(c2ccccc2)CC1	-2	.	-7	+	6	0	4	-10
